From PubChem
NPSR antag = neuropeptide S receptor (human) antagonism, cAMP; Q6W5P4; CHO-NPSR cells, cAMP TR-FRET, antagonist mode; Potency, µM (highest dose often 38.3 µM), inactives show at the top dose activity change, negative = inhibition, actives largely listed as inhibitors; actives 1% (n = 220,000); also: % is scaled to controls: 0 for no effect and ±100 for the full control effect; nearly all actives have a fitted effect of over 50% in size; many of its hits are not listed in these tables
Target sequence (Q6W5P4 whole entry, looked up): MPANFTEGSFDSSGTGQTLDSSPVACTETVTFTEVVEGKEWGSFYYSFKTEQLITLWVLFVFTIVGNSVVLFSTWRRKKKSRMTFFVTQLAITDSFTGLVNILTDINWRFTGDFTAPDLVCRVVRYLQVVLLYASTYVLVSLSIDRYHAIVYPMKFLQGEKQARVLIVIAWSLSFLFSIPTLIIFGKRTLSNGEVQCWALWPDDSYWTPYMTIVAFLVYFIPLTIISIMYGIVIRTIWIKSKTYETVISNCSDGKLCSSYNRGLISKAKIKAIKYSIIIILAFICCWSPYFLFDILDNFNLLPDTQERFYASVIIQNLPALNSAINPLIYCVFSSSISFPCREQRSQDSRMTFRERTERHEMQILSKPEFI
ALDH1A1 inh = ALDH1A1 (human) enzyme inhibition; P00352; Purified ALDH1A1, NADH fluorescence, propionaldehyde substrate; Potency, µM (top dose mostly 75.3 µM), inactives show top-dose activity, negative = inhibition, hits mostly inhibitors; actives 7.3% (n = 220,000); AID 1030; active = well fitted inhibition curve with a large enough effect, not every such curve was filed as active; inconclusive = small, poorly fitted or top-dose-only effect, or another doubt; inactive = no such curve, though single readings can be large or run the other way;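 also: plate controls were no enzyme wells and a reference inhibitor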
Epigenetic derep = derepresses silenced GFP reporter in murine cells; actives 0.2% (n = 280,000); murine LDR cells, GFP reporter derepression, 30 h; Potency, µM (doses to about 53.9 µM), for inactives: top-dose GFP activation, hits mostly activators; also: % of control where 0% means no effect; nearly all actives have a fitted effect of over 60% in size
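GFP-positive cell count by laser-scanning cytometry (objects 20–120 um) after 30 h, 37 C compound exposure of murine LDR cells; reporter is CMV-GFP integrated at a silenced locus, inducible by HDAC or DNMT inhibitors.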
Tau fluor counter = counter-screen for tau fibril formation inhibitors; tau K18 P301L Alexa594 fluorescence, heparin fibrillization; Potency, µM (top dose mostly 57.7 µM), without a hit: top-dose activity change, negative = decrease; actives 0.93% (n = 280,000); AID 1463; also: % is scaled to controls: 0 for no effect and ±100 for the full control effect; nearly all actives have a fitted effect of over 55% in size
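Human tau K18 P301L (15 uM unlabeled, 0.24 uM Alexa 594-labeled) in 100 mM sodium acetate pH 7 with 20 uM heparin, 6 hr at 37 C. ThT 30 uM added, 1 hr ambient; Alexa 594 FP and total fluorescence read at 555/632 nm.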
* hit, by the source's call; ? = inconclusive; nt = not tested or not shown; & = joins results of further samples; [ ] = remark or other dose. Unless noted, calls follow the shape of the dose curve; as a rule, active = well fitted curve in the direction sought with a large enough effect; inconclusive = small, poorly fitted or top-dose-only effect, or another doubt; inactive = no such curve, though single readings can be large; an effect the other way counts as inactive or inconclusive. Potency is read from the fitted curve at half-maximal effect. Not all compounds are listed; the hit share may differ from the screen's.

Below each SMILES – NPSR antag | ALDH1A1 inh | Epigenetic derep | Tau fluor counter
> Cc1ccc2c(CC(=O)N3CCN(S(=O)(=O)c4ccc5c(c4)OCCO5)CC3)coc2c1
  -10.9%[46.1 µM] | ? | -0.3% | -24.3%
> Cc1nnc(SCC2=C(C(=O)O)N3C(=O)[C@@H](NC(=O)Cn4cnnn4)[C@@H]3SC2)s1
  nt | 4.7%[20.9 µM] | 1.1%[16.9 µM] | nt
> OC[C@H]1NC[C@H](O)[C@@H](O)[C@H]1O
  nt | -13.3% | -4.5% | -2.6%
> C[C@@H]1[C@H](C)CC[C@@]2(C(=O)O)CC[C@]3(C)C(=CC[C@H]4[C@@]5(C)CC[C@@H](O)C(C)(C)[C@@H]5CC[C@@]43C)[C@@H]12
  nt | 13.3%[20.9 µM] | 2.7%[16.9 µM] | nt
> Cc1nnc(SCC2=C(C(=O)O)N3C(=O)[C@@H](NC(=O)Cn4cnnn4)[C@H]3SC2)s1
  8.9% | -7.3%&5.0%&-9.0% | -5.7%&1.1%&-0.9% | -15.8%&-2.0%&-5.7%
> CC1OC(OC2C(CO)OC(OC3C(CO)OC(O)C(O)C3O)C(O)C2O)C(O)C(O)C1NC1C=C(CO)C(O)C(O)C1O (configuration not stated)
  nt | ? | -1.3% | 10.6%
> c1ccc(CNC2=NCCCC2)cc1
  -6.8%[46.1 µM] | 5.3% | -2.6% | -11.1%

Just Tau fluor counter and Epigenetic derep (2 entries from above):
| Structure | Tau fluor counter | Epigenetic derep |
| --- | --- | --- |
| CC1OC(OC2C(CO)OC(OC3C(CO)OC(O)C(O)C3O)C(O)C2O)C(O)C(O)C1NC1C=C(CO)C(O)C(O)C1O (configuration not stated) | 10.6% | -1.3% |
| c1ccc(CNC2=NCCCC2)cc1 | -11.1% | -2.6% |

Filtered by structure, those above containing a COOH group
Below each SMILES – NPSR antag | ALDH1A1 inh | Epigenetic derep | Tau fluor counter
> Cc1nnc(SCC2=C(C(=O)O)N3C(=O)[C@@H](NC(=O)Cn4cnnn4)[C@@H]3SC2)s1
  nt | 4.7%[20.9 µM] | 1.1%[16.9 µM] | nt
> C[C@@H]1[C@H](C)CC[C@@]2(C(=O)O)CC[C@]3(C)C(=CC[C@H]4[C@@]5(C)CC[C@@H](O)C(C)(C)[C@@H]5CC[C@@]43C)[C@@H]12
  nt | 13.3%[20.9 µM] | 2.7%[16.9 µM] | nt
> Cc1nnc(SCC2=C(C(=O)O)N3C(=O)[C@@H](NC(=O)Cn4cnnn4)[C@H]3SC2)s1
  8.9% | -7.3%&5.0%&-9.0% | -5.7%&1.1%&-0.9% | -15.8%&-2.0%&-5.7%
